From PubChem
CXXC DNA block: inhibitors of human MLL CXXC domain-DNA interaction. Q03164. MLL-CXXC / FITC-HOXA9 DNA fluorescence polarization. Potency, µM (titrated, usually from 115 µM), inactives show at the highest dose activity change, negative = inhibition, hits mostly inhibitors. 290,000 tested, 0.037% active; active = well fitted inhibition curve with a large enough effect in the polarisation, with a control signal flat, not every such curve was filed as active; inconclusive = small, poorly fitted or top-dose-only effect, or effect the other way, or a change in a side signal; inactive = no such curve, though single readings can be large or run the other way; the % refers to the polarisation
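Steps: dispense CXXC domain solution (7 uM) → pin compounds or unlabeled HOX-A9 DNA control → 5 min ambient → add FLSN-HOX-A9 solution (50 nM) → spin → 30 min ambient → fluorescence polarization. Tris pH 7.5/NaCl/DTT/BSA buffer.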
NPC1 promoter act: activators of NPC1 promoter | Huh7 NPC1 promoter luciferase reporter, 24 h | Potency, µM (series often up to 9.22 µM), for inactives: at the highest dose activation, usual class: activators | 320,000 tested, 2.4% active | AID 485313;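 also: % of control where 0% means no effect; nearly all actives have a fitted effect of over 60% in size; reporter is driven by a mutant NPC1 promoter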
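Stable NPC1-promoter luciferase Huh7 line; cpd (DMSO) 24 h, 37 °C, 5% CO2; Amplite luciferase reagent 10 min RT; luminescence readout. qHTS format.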
ELG1 genotoxic: induces genotoxicity in HEK293T cells with luciferase-tagged ELG1; HEK293T ELG1-luciferase reporter, luminescence, 16 h; Potency, µM (series often up to 46 µM), inactives show at the highest dose activity change, positive = activation, actives largely listed as activators; 330,000 tested, 1.3% active; AID 504466; also: % of control where 0% means no effect; nearly all actives have a fitted effect of over 60% in size
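After overnight (16 hr) compound treatment at 37 °C, ELG1-luciferase HEK293T cells were lysed with ONE-Glo; luminescence quantified 30 min later at room temperature.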
Rab9 prom act: activates the Rab9 promoter; Potency, µM (titrated, usually from 9.22 µM), for the others: top-dose activation, negative = inhibition, most hits filed as activators; 320,000 tested, 2.8% active; Huh7 Rab9 promoter-luciferase reporter, luminescence, 24 h; also: % of control where 0% means no effect; nearly all actives have a fitted effect of over 60% in size
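Huh7 cells stably carrying Rab9 promoter–luciferase reporter, plated 1500 cells/well, compound added after 2 h and incubated 24 h at 37 °C; luciferase luminescence then read after 10 min with detection reagent.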
MBNL1 CUG block: MBNL1-poly(CUG) RNA binding inhibition | TR-FRET MBNL1-His/biotin-(CUG)12 binding, 665/545 ratio | Potency, µM (titrated, usually from 57.5 µM), inactives show at the top dose activity change, negative = inhibition, usual class: inhibitors | 280,000 tested, 0.036% active | AID 2675; active = well fitted inhibition curve with a large enough effect in the signal ratio, with a control signal flat, not every such curve was filed as active; inconclusive = small, poorly fitted or top-dose-only effect, or effect the other way, or a change in a side signal; inactive = no such curve, though single readings can be large or run the other way; the % refers to the signal ratio; also: % is scaled to controls: 0 for no effect and ±100 for the full control effect
Target sequence (Q9NR56 whole entry, looked up): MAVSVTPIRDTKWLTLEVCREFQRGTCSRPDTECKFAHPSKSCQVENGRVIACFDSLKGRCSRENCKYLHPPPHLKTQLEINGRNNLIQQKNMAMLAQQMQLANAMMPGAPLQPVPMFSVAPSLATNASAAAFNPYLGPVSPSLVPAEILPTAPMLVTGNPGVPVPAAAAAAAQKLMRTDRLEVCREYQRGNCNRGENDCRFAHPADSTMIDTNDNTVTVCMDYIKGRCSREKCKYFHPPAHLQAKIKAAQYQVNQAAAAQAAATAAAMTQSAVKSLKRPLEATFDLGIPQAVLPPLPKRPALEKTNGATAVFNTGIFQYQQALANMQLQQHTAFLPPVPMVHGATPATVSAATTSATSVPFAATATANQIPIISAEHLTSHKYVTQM
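Compound titration spanned 92 nM–58 uM against the MBNL1-His/biotin-(CUG)12 complex. After 60 min at room temperature with 5 nM streptavidin-XL665 and 0.055 ng/ul terbium anti-His, ratiometric 665/545 nm emission (Ex 340 nm) normalized to controls.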
uPA surface inh: cell surface uPA generation inhibition; cell surface uPA generation assay, qHTS; Potency, µM (highest dose often 38.3 µM), inactives show top-dose activity change, negative = inhibition, actives largely listed as inhibitors; 330,000 tested, 0.31% active; active = well fitted inhibition curve with a large enough effect; inconclusive = small, poorly fitted or top-dose-only effect; inactive = no such curve, though single readings can be large or run the other way; tested in mouse RAW 264.7 cells; also: % is scaled to controls: 0 for no effect and ±100 for the full control effect; nearly all actives have a fitted effect of over 55% in size
* = called active by the depositor; ? = inconclusive; / = no result given; & = joins results of further samples; [ ] = remark or other dose. Unless noted, calls follow the shape of the dose curve; as a rule, active = well fitted activation curve with a large enough effect; inconclusive = small, poorly fitted or top-dose-only effect; inactive = no such curve, though single readings can be large or run the other way. Potency is read from the fitted curve at half-maximal effect. Some of the compounds tested; count on the stated rates, not on these rows.

entry	SMILES	CXXC DNA block	NPC1 promoter act	ELG1 genotoxic
1	CC(C)N(CCC(C(N)=O)(c1ccccc1)c1ccccn1)C(C)C (centres undefined)	3%&29%&1%	3%[46.1 µM]	-1%&-2%
2	CN1CC[C@]23c4c5ccc(O)c4OC2C(O)C=CC3[C@H]1C5 (some centres undefined)	/	/	2%
3	NC(Cc1nc2ccccc2[nH]1)c1ccc(Cl)cc1 (centres undefined)	-4%	14%	13µM*
4	C[C@H]1CC[C@@H]2[C@@H](C)[C@H]3[C@H](C[C@H]4[C@@H]5CC=C6C[C@@H](O[C@@H]7O[C@H](CO)[C@H](O)[C@H](O[C@@H]8O[C@H](CO)[C@@H](O)[C@H](O)[C@H]8O)[C@H]7O[C@@H]7O[C@@H](C)[C@H](O)[C@@H](O)[C@H]7O)CC[C@]6(C)[C@H]5CC[C@]34C)N2C1	8%	-2%	-5%
5	C=CCN1CC[C@]23c4c5ccc(O)c4O[C@H]2[C@@H](O)C=C[C@H]3[C@H]1C5	-8%	/	/
6	c1ccc(-c2ccc(-c3n(-c4ccccn4)c4ccccc4[n+]3-c3ccccn3)cc2)cc1	-1%	-7%	-12%
7	COc1ccc(-c2cc(=Nc3ccccc3)c3cc(C)ccc3o2)cc1	-4%	6%	?
8	CCC(=O)Nc1ccc(C(=O)OCc2ccccc2Cl)cc1	1%	?	15%
9	CN1CCC23CCCC[C@H]2C1Cc1ccc(O)cc13 (some centres undefined)	-11%	/	/
10	CCC(=O)OC(Cc1ccccc1)(c1ccccc1)[C@H](C)CN(C)C (some centres undefined)	/	/	0%
11	COc1ccc(-n2nc(C(=O)NCC(=O)N3CCC4(CC3)OCCO4)c3ccccc3c2=O)cc1Cl	5%	?	12%
12	CN(C)C(=O)Oc1ccc(NC(=O)N2CCOCC2)cc1	-1%	-7%	5%

entry	Rab9 prom act	MBNL1 CUG block	uPA surface inh
1	8%[46.1 µM]	-12%	9%&-8%
2	/	/	-3%
3	?	-12%	-13%
4	3%	9%	-6%
5	/	/	/
6	1%	2%	-26%
7	21%	/	?
8	?	4%	2%
9	/	/	/
10	/	/	-17%
11	?	?	-6%
12	0%	0%	1%

Brought forward from above: 2 compounds, then new ones.
entry	SMILES	CXXC DNA block	NPC1 promoter act	ELG1 genotoxic
11	COc1ccc(-n2nc(C(=O)NCC(=O)N3CCC4(CC3)OCCO4)c3ccccc3c2=O)cc1Cl	5%	?	12%
12	CN(C)C(=O)Oc1ccc(NC(=O)N2CCOCC2)cc1	-1%	-7%	5%
13	N[C@@H](Cc1ccc(N(CCCl)CCCl)cc1)C(=O)O	6%	-1%	7%
14	Oc1cc2c(cc1O)[C@H]1c3ccccc3CNC1CC2 (some centres undefined)	-2%	/	/
15	COc1ccccc1N=C1SCCCN1C	-4%	0%	0%
16	C=CC(=O)NCNC(=O)C=C	/	0%	8%
17	Cc1cc(C)[n+](C2C3CC4CC(C3)CC2C4)o1 (centres undefined)	-1%	-9%	-9%
18	NC(N)=N/N=C/c1ccc(N(c2ccccc2)c2ccccc2)cc1	7%	-7%	-2%
19	CC/C(=C(\c1ccc(O)cc1)c1ccc(OCCN(C)C)cc1)c1ccccc1	19%	1%	/
20	CCOc1ccc(-c2cc(C)[n+](CCN(CC)CC)c(-c3ccc(OCC)cc3)c2)cc1	-3%	-34%[inhibitor]	9%
21	NCC(CC(=O)O)c1ccc(Cl)cc1 (centres undefined)	5%&-3%	3%[46.1 µM]	-4%
22	CC(C)CC(N(C)C)C1(c2ccc(Cl)cc2)CCC1 (centres undefined)	-1%	/	1%&-1%
23	Brc1c(NC2=NCCN2)ccc2nccnc12	4%&1%	-5%[46.1 µM]	-1%
24	Cc1ccc(S(=O)(=O)N(C)CCCC(=O)N2CCN(c3ccccn3)CC2)cc1	9%	-3%	-17%

entry	Rab9 prom act	MBNL1 CUG block	uPA surface inh
11	?	?	-6%
12	0%	0%	1%
13	-3%	/	2.5µM*
14	/	/	/
15	-3%	13%	/
16	3%	/	-3%
17	-1%	-5%	-8%
18	-4%[1.84 µM]	5%	-8%
19	-4%	2%	?
20	-42%[inhibitor]	?	3.5µM*
21	-5%[46.1 µM]	-9%	0%
22	/	/	10%&20%
23	-3%[46.1 µM]	?	/
24	-6%	2%	2%

(more compounds)
entry	SMILES	CXXC DNA block	NPC1 promoter act	ELG1 genotoxic
25	CC(C)[C@]12CC(=O)[C@H](C)[C@H]1C2	/	2%	-2%
26	CC(C)(C)C(=O)c1cn(CC(=O)NCc2ccco2)c2ccccc12	-15%	?	?
27	CC(Cc1ccc(O)cc1)NCC(O)c1cc(O)cc(O)c1 (centres undefined)	9%&5%	4%[46.1 µM]	3%
28	CC1(C)S[C@@H]2[C@H](NC(=O)C(C(=O)O)c3ccccc3)C(=O)N2[C@H]1C(=O)O (some centres undefined)	5%	-3%	2%
29	CC1=C/C(=C(/c2cc(C)c(O)c(Br)c2)c2ccccc2S(=O)(=O)O)C=C(Br)C1=O	15%	-9%	-11%
30	C[C@H]1CC[C@@H]2[C@@H](C)[C@H]3[C@H](C[C@H]4[C@@H]5CC=C6CC(O[C@@H]7O[C@H](CO)[C@H](O)[C@H](O[C@@H]8O[C@H](CO)[C@@H](O)[C@H](O)[C@H]8O)[C@H]7O[C@H]7O[C@@H](C)[C@H](O)[C@@H](O)[C@H]7O)CC[C@]6(C)[C@H]5CC[C@]34C)N2C1 (some centres undefined)	17%	/	/
31	C#CCN(C)C(C)Cc1ccccc1 (centres undefined)	2%&-15%	3%	1%

entry	Rab9 prom act	MBNL1 CUG block	uPA surface inh
25	-5%	/	-6%
26	3.2µM*	-8%	1%
27	-2%[46.1 µM]	-1%	-25%
28	-3%	-13%	33%[activator]
29	-3%[1.84 µM]	?	-5%
30	/	/	/
31	-1%	1%	-30%

Part of the list above in another layout.
Results follow in this order: CXXC DNA block, NPC1 promoter act, ELG1 genotoxic, Rab9 prom act, MBNL1 CUG block, uPA surface inh
18) NC(N)=N/N=C/c1ccc(N(c2ccccc2)c2ccccc2)cc1
    7%, -7%, -2%, -4%[1.84 µM], 5%, -8%
19) CC/C(=C(\c1ccc(O)cc1)c1ccc(OCCN(C)C)cc1)c1ccccc1
    19%, 1%, /, -4%, 2%, ?
20) CCOc1ccc(-c2cc(C)[n+](CCN(CC)CC)c(-c3ccc(OCC)cc3)c2)cc1
    -3%, -34%[inhibitor], 9%, -42%[inhibitor], ?, 3.5µM*
21) NCC(CC(=O)O)c1ccc(Cl)cc1 (centres undefined)
    5%&-3%, 3%[46.1 µM], -4%, -5%[46.1 µM], -9%, 0%
22) CC(C)CC(N(C)C)C1(c2ccc(Cl)cc2)CCC1 (centres undefined)
    -1%, /, 1%&-1%, /, /, 10%&20%
23) Brc1c(NC2=NCCN2)ccc2nccnc12
    4%&1%, -5%[46.1 µM], -1%, -3%[46.1 µM], ?, /
24) Cc1ccc(S(=O)(=O)N(C)CCCC(=O)N2CCN(c3ccccn3)CC2)cc1
    9%, -3%, -17%, -6%, 2%, 2%
25) CC(C)[C@]12CC(=O)[C@H](C)[C@H]1C2
    /, 2%, -2%, -5%, /, -6%
26) CC(C)(C)C(=O)c1cn(CC(=O)NCc2ccco2)c2ccccc12
    -15%, ?, ?, 3.2µM*, -8%, 1%
27) CC(Cc1ccc(O)cc1)NCC(O)c1cc(O)cc(O)c1 (centres undefined)
    9%&5%, 4%[46.1 µM], 3%, -2%[46.1 µM], -1%, -25%
28) CC1(C)S[C@@H]2[C@H](NC(=O)C(C(=O)O)c3ccccc3)C(=O)N2[C@H]1C(=O)O (some centres undefined)
    5%, -3%, 2%, -3%, -13%, 33%[activator]
